PINK1 expr mod = A Quantitative High throughput Screen to Identify Chemical Modulators of PINK1 Expression; PINK1 immunofluorescence, high-content cytometry, 24 h; Potency, µM (top dose mostly 76.6 µM), for the others: at the top dose activation (PINK1 increase), usual class: activators; actives 0.2% (n = 410,000); AID 624263, 2012; active = well fitted activation curve with a large enough effect; inconclusive = small, poorly fitted or top-dose-only effect; inactive = flat fitted curve, though single readings scatter; cell line not stated here;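 also: potency is read from the fitted curve at half-maximal effect; % of control where 0% means no effect; nearly all actives have a fitted effect of over 65% in size; a mitochondrial uncoupler was the plate control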
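Stable cell line treated 24 h with compounds at 5 concentrations (CCCP controls), then fixed and immunostained for PINK1 plus nuclear and cell stains; PINK1 immunofluorescence quantified by laser-scanning microplate cytometry.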
Six1-Eya2 blk = qHTS Assay for Inhibitors of the Six1/Eya2 Interaction | Homeobox protein SIX1 (Homo sapiens) + Protein phosphatase EYA2 (Homo sapiens), … | AlphaScreen GST-Six1/His-Eya2 binding, biochemical; active compounds read low; control for the full effect not named in the record | activity change, % (no concentration beside the values) | actives 0.56% (n = 360,000) | AID 651725, 2012; in the data active = activity change below about -65%; inconclusive = about -30% to -65%; inactive = above about -30%; also: % is scaled to controls: 0 for no effect and ±100 for the full control effect
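Compounds are tested against tagged Six1 and Eya2 proteins bridged by glutathione donor and nickel acceptor beads; after a one-hour incubation at 37 °C without light, AlphaScreen emission is recorded.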
CtBP-E1A blk = qHTS Assay for Inhibitors of the CtBP/E1A Interaction; actives 0.49% (n = 340,000); activity change, % (no concentration beside the values); AID 651724, 2012; AlphaScreen GST-E1A/His-CtBP binding, 1536-well; active compounds read low; control for the full effect not named in the record; in the data active means activity change below about -65%; inconclusive means about -30% to -65%; inactive means above about -30%; also: % is scaled to controls: 0 for no effect and ±100 for the full control effect
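Homogeneous bead-based format: GST-tagged E1A captured on glutathione donor beads, His-tagged CtBP on nickel acceptor beads; compounds precede bead addition by 2 h at 37 °C.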
D2 PAM = Beta-Arrestin HTS for Positive Allosteric Modulators of the Human D2 Dopamine Receptor: Potentiators; DiscoveRx D2 beta-arrestin cells, luminescence, 90 min; 100% = 57 uM dopamine signal; potentiation, % (concentration not given with the values); actives 0.23% (n = 360,000); active = potentiation of 50% or more; inconclusive = 30% to 50%; inactive = 30% or less;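 also: compound concentration not given in the record; tested on top of an EC20 dose of dopamine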
Target sequence (P14416 whole entry, looked up): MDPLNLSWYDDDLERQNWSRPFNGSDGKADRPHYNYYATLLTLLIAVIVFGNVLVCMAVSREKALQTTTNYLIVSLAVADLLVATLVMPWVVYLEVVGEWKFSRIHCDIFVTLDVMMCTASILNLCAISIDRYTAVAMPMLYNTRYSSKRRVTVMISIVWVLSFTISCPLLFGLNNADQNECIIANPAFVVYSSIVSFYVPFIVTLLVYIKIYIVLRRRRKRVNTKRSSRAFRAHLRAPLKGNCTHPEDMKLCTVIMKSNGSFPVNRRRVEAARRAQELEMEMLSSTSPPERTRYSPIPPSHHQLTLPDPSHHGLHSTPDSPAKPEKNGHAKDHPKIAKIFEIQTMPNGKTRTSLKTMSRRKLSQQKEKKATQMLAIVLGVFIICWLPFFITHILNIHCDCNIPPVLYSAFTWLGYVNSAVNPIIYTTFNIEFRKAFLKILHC
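PathHunter beta-arrestin assay in DiscoveRx D2 cells. Compounds were added with an EC20 of dopamine (50 nM final) for 90 min at 37 deg C. Luminescence was read 1 h after detection reagent, with 57 uM dopamine as the EC100 control.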
TRPML1 agonist = qHTS for Agonists of the Human Mucolipin Transient Receptor Potential 1 (TRPML1). TRPML1-expressing cells, Ca2+ dye fluorescence, FDSS; host cell line not named in the record; reference of the full effect not given here. activation, % (no concentration beside the values). actives 0.12% (n = 410,000). Mucolipin-1 (Homo sapiens), Q9GZU1. AID 624414, 2012; in the data active = activation above about 50%; inconclusive = about 30% to 50%; inactive = below about 30%; also: 0% is about no effect; the text of the record puts the active cut at 80%
Target sequence (Q9GZU1 whole entry, looked up): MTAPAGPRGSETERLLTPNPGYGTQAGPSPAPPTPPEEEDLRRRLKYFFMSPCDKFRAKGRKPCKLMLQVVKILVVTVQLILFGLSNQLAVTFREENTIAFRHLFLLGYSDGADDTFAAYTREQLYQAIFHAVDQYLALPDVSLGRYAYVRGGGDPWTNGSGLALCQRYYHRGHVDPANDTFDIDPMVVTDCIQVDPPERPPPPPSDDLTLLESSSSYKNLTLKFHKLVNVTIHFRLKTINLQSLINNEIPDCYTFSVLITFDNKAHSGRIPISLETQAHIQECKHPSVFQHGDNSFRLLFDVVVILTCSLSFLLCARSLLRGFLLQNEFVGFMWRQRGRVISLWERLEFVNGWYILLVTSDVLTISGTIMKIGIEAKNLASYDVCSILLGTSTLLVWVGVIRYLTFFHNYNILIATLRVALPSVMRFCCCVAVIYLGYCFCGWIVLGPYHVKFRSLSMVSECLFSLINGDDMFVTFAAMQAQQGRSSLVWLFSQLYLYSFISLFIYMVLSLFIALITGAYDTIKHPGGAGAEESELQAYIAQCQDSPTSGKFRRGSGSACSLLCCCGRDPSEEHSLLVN
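Calcium fluorescence on an FDSS kinetic reader gave the read-out. Tet-induced TRPML1-DL cells were plated overnight, dye-loaded (Ca8 with quencher, 45-90 min, room temperature, dark), then read 110 s after compound addition, and again 110 s after 4uM final 54-4 (EC80).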
D2 agonist = Beta-Arrestin HTS for Positive Allosteric Modulators of the Human D2 Dopamine Receptor: Agonists. actives 0.084% (n = 360,000). AID 624465, 2012. D(2) dopamine receptor (Homo sapiens), P14416. DiscoveRx PathHunter D2 beta-arrestin, luminescence, 90 min; 100% = 57 uM dopamine signal. activation, % (concentration not given with the values); in the data active = activation above about 40%; inconclusive = about 15% to 40%; inactive = below about 15%; also: compound concentration not given in the record; the text of the record calls up to 30% inactive
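Agonist mode: compounds alone added to overnight-plated D2 PathHunter cells for 90 min at 37 C, with 57 uM final dopamine (EC100) defining full response. Beta-arrestin recruitment detected by chemiluminescent reagent, read after 1 h at ambient temperature.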
* hit, by the source's call; ? = inconclusive; . = not tested or not shown; & = joins results of further samples; [ ] = another dose, or the depositor's remark.

SMILES	PINK1 expr mod	Six1-Eya2 blk	CtBP-E1A blk	D2 PAM	TRPML1 agonist	D2 agonist
CCN1C(=O)[C@H]2[C@@H](c3ccc(C)cc3)N3C(=O)N(c4cccc(F)c4)C(=O)[C@@]3(CC)[C@H]2C1=O	0.3%	0	4	-11	-0.1	0.1
COc1ccc(C(=O)c2coc3ccc(O)c(CN4CCOCC4)c23)cc1	0.6%	1	-1	-8	-0.3	-1.2
COc1ccc(NC(=S)N(CCN2CCOCC2)Cc2cc3cc4c(cc3[nH]c2=O)OCCO4)cc1	1.4%	-14	-10	-4	-0.4	3.3
COC(=O)c1c(C)[nH]c(C(C)=O)c1C	0.1%	3	15	-6	0.4	-1.8
CCCCc1nc2cc(C(=O)N3CCCCC3COC)ccc2o1 (configuration not stated)	2.4%	4	10	19	0.3	-0.7
O=C(c1ccc2c(c1)OCO2)N1CCc2ccccc2C1	-5.2%[38.3 µM]	4	3	-8	1.4	-3.7
CCOP(=O)(OCC)C(Nc1cccc([N+](=O)[O-])c1)c1ccc(N(C)C)cc1 (configuration not stated)	0.1%	-7	.	-10	0.9	-11
CCCSCCCNC(=O)c1ccccc1NC(=O)C1=CSCCO1	1.5%	-5	.	-7	2.0	-0.7
O=C1c2ccc3c4c(ccc(c24)C(=O)N1CCCCO)C(=O)N(CCCCO)C3=O	7.5%	-22	-26	4	0.0	5.9
CCCCn1c(N)c(N(CCOC)C(=O)c2cc(-c3ccncc3)nc3ccccc23)c(=O)[nH]c1=O	4.3%	1	-4	7	0.1	-1.8
Cc1ccc(NC(=O)CSc2ncc3ccccn23)cc1	0.0%	22	-13	-26	0.0	-3.8
CCOc1cc(/C=C/C(=O)c2ccc3c(c2)OCCO3)ccc1OCC(=O)N(C)C	-0.8%	4	1	-6	0.6	-2.3
CCCCCCOc1ccc(C(=O)NCCCn2ccnc2)cc1	0.5%	-5	3	6	-0.5	-4.8
COc1ccccc1NC(=O)C1CC(=O)OC1c1ccccc1 (configuration not stated)	2.9%	6	9	-39	0.4	-0.8
CN(CC(=O)NCCc1ccc(Cl)cc1)S(=O)(=O)c1ccc2c(c1)c(=O)n(C)c(=O)n2C	-0.2%	-15	-3	-3	0.3	3.1
O=c1oc(-c2ccccc2NS(=O)(=O)c2ccc(Cl)cc2)nc2ccccc12	-0.2%	0	-1	1	-0.5	1.8
Cc1ccc(OCC(=O)NNC(=O)c2cccnc2)cc1C	-0.3%	-2	1	-7	1.0	-5.3
CCc1nccn1S(=O)(=O)c1ccc(C)c(C)c1	-2.3%	10	-1	18	0.8	0.1
CCCCCCOC(=O)Sc1nc2ccccc2o1	.	4	4	-18	-0.4	-2.1
CCOC(=O)N1CCC(NC(=O)C2CCN(S(=O)(=O)N3CCC(C)CC3)CC2)CC1	?	1	1	4	-0.5	0.5
COc1ccc(-c2csc(N3CCN(S(=O)(=O)c4ccc5c(c4)NC(=O)CO5)CC3)n2)cc1	0.6%	2	-9	-18	-0.2	2.9
CCOc1ccc(Cc2nc(-c3nonc3N)no2)cc1OCC	3.3%	-11	-2	-4	1.8	-1.6
CCOC(=O)c1cc(C(=O)NC(C)c2ccccc2)c(=O)[nH]c1C (configuration not stated)	0.0%	-11	.	-5	.	1.3
CCc1nc(SCc2ccccc2)n[nH]1	0.3%	-9	0	-5	0.3	0.6

Gathered by group, the compounds so far with two or more sulfur atoms.
SMILES	PINK1 expr mod	Six1-Eya2 blk	CtBP-E1A blk	D2 PAM	TRPML1 agonist	D2 agonist
CCCSCCCNC(=O)c1ccccc1NC(=O)C1=CSCCO1	1.5%	-5	.	-7	2.0	-0.7
COc1ccc(-c2csc(N3CCN(S(=O)(=O)c4ccc5c(c4)NC(=O)CO5)CC3)n2)cc1	0.6%	2	-9	-18	-0.2	2.9

One compound at a time, as listed above. Order of values: PINK1 expr mod | Six1-Eya2 blk | CtBP-E1A blk | D2 PAM | TRPML1 agonist | D2 agonist
`CCc1nc(SCc2ccccc2)n[nH]1` is listed with 0.3% | -9 | 0 | -5 | 0.3 | 0.6
`CCOc1ccc(Cc2nc(-c3nonc3N)no2)cc1OCC` is listed with 3.3% | -11 | -2 | -4 | 1.8 | -1.6
`CCOC(=O)N1CCC(NC(=O)C2CCN(S(=O)(=O)N3CCC(C)CC3)CC2)CC1` is listed with ? | 1 | 1 | 4 | -0.5 | 0.5

Carrying on.
SMILES	PINK1 expr mod	Six1-Eya2 blk	CtBP-E1A blk	D2 PAM	TRPML1 agonist	D2 agonist
CNC(=O)COC(=O)c1nc(-n2nc(C)cc2C)ccc1Cl	2.4%[38.3 µM]	-1	5	17	0.4	0.9
COc1cc(/C=C(\C#N)C(=O)NCC2CCCO2)ccc1OC(C)C (configuration not stated)	-0.1%	-1	8	-14	-0.9	-3.9
COc1cc([N+](=O)[O-])ccc1NC(=O)CCCOc1ccccc1	-1.2%	-15	-7	4	2.8	-3.6
COc1ccc(S(=O)(=O)N2CCc3ccccc32)cc1[N+](=O)[O-]	3.9%	-1	-12	0	2.4	-1.5
CN(CCC#N)S(=O)(=O)c1ccc2c(c1)c(=O)n(C)c(=O)n2C	0.1%	-5	2	-14	1.1	-2.0
O=C(CNS(=O)(=O)c1c(Cl)cccc1Cl)OCC(=O)c1ccc[nH]1	2.9%	-4	.	-14	0.0	-3.6
COc1cc2c(cc1OC)CN(C1CCC(C)CC1)CC2 (configuration not stated)	0.0%	-2	7	-2	0.0	-3.5
CC(C)CC1C(C#N)=C(N)SC(N)=C1C#N	13%[38.3 µM]	2	-1	-3	1.9	1.9
Cc1onc(-c2ccccc2)c1C(=O)OCC(=O)c1ccc(F)cc1	0.6%	15	8	-9	2.0	-1.3
O=C(CSc1nc2ccccc2o1)NCCOc1ccccc1	-4.1%[38.3 µM]	3	9	-4	0.1	0.6
O=C(Cc1ccc(-n2c(=S)[nH]c3ccccc3c2=O)cc1)N1CCC(N2CCCCC2)CC1	20%[38.3 µM]	-4	-3	-8	-0.8	-3.0
O=C(c1ccncc1)N1CCN(CCc2ccccc2)CC1	5.5%	20	2	-4	1.0	0.1
CCOc1ccc(N(C)S(=O)(=O)c2cc(-c3cc(C)no3)ccc2OC)cc1	1.2%&1.6%	-3	-6	-6	-0.4&-0.2	0.3
COc1ccc(/C=N/N2C(=O)C3C4C=CC(CC4)C3C2=O)c(OC)c1 (configuration not stated)	-1.6%	-2	8	-5	2.5	-1.9
COC(=O)NNC(=O)COc1cc(C)ccc1C	-0.7%	0	-16	-15	-0.4	-4.6
O=C(Nc1cccc(OC(F)(F)F)c1)C1Cc2c(-c3ccc4c(c3)OCO4)ccnc2O1 (configuration not stated)	3.4%	-4	-13	-4	0.3	-0.2
CCc1nc(SCc2ccc(Br)cc2)n[nH]1	0.2%	3	7	-5	-0.5	3.2
COc1cc(Cl)c(C)cc1NC(=O)CSc1nnc(CN2CCCC2)o1	3.9%	2	0	-5	-0.2	-7.8
CC(C)C[C@@H](COCc1ccc(C(F)(F)F)cc1)N1CCN(C(=O)c2ccc(C(F)(F)F)cc2)CCC1=O	2.0%	7	7	.	0.0	.
O=C(Cc1ccccc1)c1c[nH]c(C(=O)NCc2ccncc2)c1	1.7%	9	11	5	0.4	-1.6
COc1cccc(C(=Cc2ccc([N+](=O)[O-])cc2)C(=O)O)c1	-0.3%	-1	1	-1	0.8	5.7
CCOC(=O)c1ccccc1N1C(=O)C2Sc3[nH]c(=O)sc3C(/C=C/c3ccccc3)C2C1=O (configuration not stated)	1.9%	-22	-20	-27	0.1	-7.0
CCOc1ccc(NCCC(=O)c2ccc3c(c2)OCO3)cc1	.	?	11	-17	-0.5	-3.1
C=CCSc1nnc(NC(=O)CCNC(=O)c2ccco2)s1	3.9%	7	-2	-3	-0.5	-1.8
O=C(NCCS(=O)(=O)N1CCN(Cc2ccccc2)CC1)c1ccccc1	-0.7%	9	0	0	-0.5	-0.6
COc1ccc(CCNC(=O)CCCCCN2C(=O)c3ccccc3C2=O)cc1OC	-1.0%	1	-7	-4	-1.0	-4.5
Cc1ccc(N=c2sc(C)c(C)n2C)cc1	2.8%	-19	-13	-23	1.4	-1.3
COC(=O)c1c(NC(=O)COC(=O)c2ccc(O)cc2)sc2c1CCCCC2	5.2%	-5	-5	-5	0.0	0.3
O=C(NCCCN1CCOCC1)NC12CC3CC(CC(C3)C1)C2	2.1%	-1	1	0	-0.4	-2.1
O=c1[nH]c2ccccc2cc1CN(c1ccccc1)S(=O)(=O)c1ccccc1	6.8%	9	-1	-11	0.5	1.0
COc1ccc(NC(=O)c2cc(S(=O)(=O)N3CCCC3)ccc2OC)cc1	?	-5	-10	-1	0.3&-0.1	7.3
CC(C)N(Cc1ccccc1)C(=O)CCc1ccccc1	2.0%	2	16	-9	0.6	-1.5
Cn1c(N)c(C(=O)COC(=O)CC2CC3CCC2C3)c(=O)n(C)c1=O (configuration not stated)	2.2%	-4	1	-9	-0.1	0.3
CCOc1ccc(S(=O)(=O)NCCC(=O)NCC(c2ccc(F)cc2)N2CCOCC2)cc1 (configuration not stated)	0.2%	-1	7	-2	-0.7	-2.7
N#CNC(=Nc1cccc(Cl)c1)Oc1ccccc1	1.1%	-7	.	-21	-1.1	-1.8
O=Cc1cccnc1SCc1ccccc1	5.0%	1	7	-2	0.4	0.8
O=C(COc1ccc(C(=S)N2CCOCC2)cc1)N1CCCC1	0.7%	3	3	4	-0.4	-0.7
COc1ccc(C(=O)NNC(=O)C(Cc2ccc(O)cc2)NC(=O)c2ccccc2NC(=O)c2ccc(OC)cc2)cc1 (configuration not stated)	5.0%	-1	-6	-15	-0.5	0.3
OC1CCN(c2c3c(nc4cc(-c5ccc(Cl)cc5)nn24)CCC3)CC1	?	-4	3	-8	0.3	0.3
Cc1onc(-c2c(Cl)cccc2Cl)c1C(=O)N1C(C)CCCC1C (configuration not stated)	-0.7%	0	-13	3	0.0	-4.8
N#C/C(=C(/O)c1ccc(-c2cccc([N+](=O)[O-])c2)o1)c1nc2ccccc2s1	?	-2	-22	-2	-0.3	-2.1
CC(=O)c1cc(F)c(N2CCCCCC2)cc1C	0.1%	8	24	-3	-1.1	-2.5
Cn1c(SCc2ccc(Cl)cc2)nnc1-c1ccc2nonc2c1	0.6%	4	.	1	1.6	-1.3
CCOC(=O)CCc1c(C)c2ccc(OCc3cc([N+](=O)[O-])ccc3OC)cc2oc1=O	7.0%	-6	-3	3	-0.8	-3.5
CC(=O)Nc1ccc(NC(=O)C(C)OC(=O)c2ccc3c(c2)OCCO3)cc1 (configuration not stated)	-1.5%	1	.	-14	-0.1	-6.7

Retrieved one by one from above:
SMILES	PINK1 expr mod	Six1-Eya2 blk	CtBP-E1A blk	D2 PAM	TRPML1 agonist	D2 agonist
CCCCn1c(N)c(N(CCOC)C(=O)c2cc(-c3ccncc3)nc3ccccc23)c(=O)[nH]c1=O	4.3%	1	-4	7	0.1	-1.8
CCCCCCOC(=O)Sc1nc2ccccc2o1	.	4	4	-18	-0.4	-2.1
